CBX7 AlphaScr: CBX7 chromodomain binding inhibitors, primary screen, biochemical, AlphaScreen; Chromobox protein homolog 7 (Homo sapiens), O95931; AlphaScreen His6-CBX7 / biotin-H3K27me3 peptide binding; hits give low values; normalised signal (fraction of DMSO) (concentration not given with the values); 1.1% of 66,000 active; AID 1224903, 2016; in the data active means normalised signal below about 0.5;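 further: 100 nL library stock added to about 20 µL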
Target sequence (O95931 whole entry, looked up): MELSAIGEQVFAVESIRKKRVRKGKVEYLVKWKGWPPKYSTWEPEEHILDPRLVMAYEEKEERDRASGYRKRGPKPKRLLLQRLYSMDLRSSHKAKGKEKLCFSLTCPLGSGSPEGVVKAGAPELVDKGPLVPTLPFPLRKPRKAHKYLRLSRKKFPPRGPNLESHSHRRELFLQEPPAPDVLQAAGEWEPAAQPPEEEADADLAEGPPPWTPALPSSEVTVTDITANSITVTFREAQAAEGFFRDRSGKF
CBX7 AlphaScr z-score: second read-out of CBX7 AlphaScr, no call of its own (marks repeat the call); z-score; measured here: z-score of CBX7 signal; some inactives read as strong as hits; reference of the scale not given here;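 same signal on another scale; lower means less binding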
* = called active by the depositor; & = joins results of further samples.

item	molecule	CBX7 AlphaScr	CBX7 AlphaScr z-score
1	COc1ccc(-c2c(C(F)(F)F)oc3c(CN4CCN(C)CC4)c(O)ccc3c2=O)cc1OC	1	0.28
2	CCOC(=O)c1cnc2ccc(OC)cc2c1Nc1cc(C)ccc1OC	1	0.67
3	CC(NC(=O)c1ccccc1F)C(c1cccs1)N1CCOCC1 (stereo not drawn)	1.1	3
4	Cc1noc(C)c1S(=O)(=O)Nc1ccc(C(=O)Nc2cccc(Cl)c2)cc1	0.97	-1.1
5	Cn1nc(CC(=O)Nc2ccc(F)cc2F)c2ccccc2c1=O	0.78	-3.2
6	CCCCNC(=O)c1ccc2c(c1)N=C(C)c1cc(Br)ccc1S2	0.95	-1.1
7	OC(COc1ccccc1)Cn1cnc2ccccc21 (stereo not drawn)	0.68	-3.8
8	CNC(=O)CN1C(=O)COc2ccc(S(=O)(=O)N3CCC(C)CC3)cc21	1	1.3
9	COc1ccc2c(c1)c(=O)c(S(=O)(=O)c1ccccc1)cn2Cc1cccc(F)c1	1.1	1
10	Cc1cc(=O)n2nc(N3CCC(C(=O)NCCCc4ccccc4)CC3)sc2n1	0.99	-0.27
11	Cc1nc2cc(-c3ccccc3)nn2c(C)c1CCC(=O)Nc1cc(F)ccc1F	1.1	2.6
12	COc1cc(OC)nc(N2C(=O)C(C)C(Cc3ccc(C)cc3)C2=O)n1 (stereo not drawn)	1	0.71
13	O=C(NCc1ccccc1Cl)c1cc2ccccn2n1	1.3	2.1
14	CC1CCC2(C)c3[nH]c4ccccc4c3CCN2C1=O (stereo not drawn)	1	0.76
15	CC(Oc1ccc(F)cc1)C(=O)NC1CCS(=O)(=O)C1 (stereo not drawn)	0.76	-2.6
16	Cc1ccc(-n2c(Cc3cccn3C)nnc2SCC(=O)N2CCN(c3ccccc3)CC2)cc1	0.8	-4.7
17	CCOc1ccc(-c2n[nH]c(C(F)(F)F)c2-c2ccccc2)c(O)c1C	0.8	-3.2
18	c1ccc(-c2nnc3sc(-c4ccc5c(c4)OCCO5)nn23)cc1	1	0.91
19	COc1ccc2c(c1)CCc1sc(NC(=O)c3ccc(F)cc3)nc1-2	1.1	1.3
20	CCOC(=O)N1CCN(C(=O)CSc2nnc(-c3ccc4c(c3)OCCO4)o2)CC1	1	0.28
21	Cc1ccccc1C(=O)Nc1cccc(C(=O)N2CCCCC2)c1	1.1	2.7
22	Cc1cc(N2CCOCC2)nc2ccc(NC(=O)CC3CCCCC3)cc12	1.1	3.9
23	COc1ccc(-n2cc(-c3ccc(C)cc3)nc2SCC(=O)NCCc2ccccc2)cc1	0.87	-4.3
24	COc1ccc(-n2ccnc2SCC(=O)Nc2ccc(C)c(Cl)c2)cc1	0.47*	-0.7*
25	CCOC(=O)c1c(C)n(-c2ccc(C)cc2)c2ccc(OCC(O)CNCC3CCCO3)cc12 (stereo not drawn)	0.8	-4.5
26	Cc1nc2sccn2c1-c1csc(Nc2ncccn2)n1	1	0.54
27	Cc1c(C)n(CC(O)CN2CCN(Cc3ccccc3)CC2)c2ccccc12 (stereo not drawn)	0.86	-4
28	CC1=C(C(=O)Nc2ccccn2)C(c2ccc(F)cc2)C2=C(CCCC2=O)N1 (stereo not drawn)	1.1	2.1
29	CCCCc1ccc(NC(=O)c2c(Cl)ccc(Cl)c2OC)cc1	1	0.048
30	Cc1ccccc1CN1CCN(CC(=O)NCCN2CCOCC2)C1=O	1	1.7

Entries listed so far that contain an NH in an aromatic ring, in the order listed:
item	molecule	CBX7 AlphaScr	CBX7 AlphaScr z-score
14	CC1CCC2(C)c3[nH]c4ccccc4c3CCN2C1=O (stereo not drawn)	1	0.76
17	CCOc1ccc(-c2n[nH]c(C(F)(F)F)c2-c2ccccc2)c(O)c1C	0.8	-3.2

Next section
item	molecule	CBX7 AlphaScr	CBX7 AlphaScr z-score
31	CCOC(=O)c1cnc2ccccc2c1Nc1cc(C(=O)O)ccc1C	1	0.87
32	Cc1ccc2c(c1)-c1c(cnn1CC(=O)NC(C)c1ccc3c(c1)OCCO3)CO2 (stereo not drawn)	0.98	-0.39
33	Cc1ccc(C(=O)c2oc3ccccc3c2NC(=O)c2sc3ccccc3c2Cl)cc1	1.3	1.2
34	COc1ccc2nc(NC3=NCC(=O)N3)nc(C)c2c1	1.1	0.85
35	O=C(NCc1cccnc1)c1cc2c(s1)CS(=O)(=O)C2	0.96	-0.81
36	COc1cccc(N2CCN(C(=O)C(NS(=O)(=O)c3ccc4c(c3)CCC(=O)N4)c3ccccc3)CC2)c1 (stereo not drawn)	0.99	-0.094
37	Cc1nn(-c2ccccc2F)c2c1C(=O)CC(c1ccccc1)C2 (stereo not drawn)	0.99	-0.13
38	O=C(Nc1ccccc1F)c1cnn(-c2ccccc2)c1C1CCNCC1	1	0.11
39	CCC(C)NC(=O)CCN1C(=O)COc2ccc(C)cc21 (stereo not drawn)	1.1	1.7
40	CCC(Sc1nccn1C)C(=O)Nc1cccc2ccccc12 (stereo not drawn)	1	0.64
41	Cc1cc(Nc2ccc(C(C)C)cc2)n2ncnc2n1	1	0.17
42	COC(=O)c1ccc(-n2nnnc2SCc2ccc(Cl)cc2)cc1	1.2	2.3
43	O=C(CCn1nc(-c2ccc(Cl)cc2)c2ccccc2c1=O)N1CCOCC1	1	0.27
44	COc1ccc(CNC(=O)c2ccc(CNc3c(N4CCOCC4)c(=O)c3=O)cc2)cc1	1.3	2
45	CC(C)N1CCc2c(sc(NC(=O)c3ccc(S(=O)(=O)N4CCOCC4)cc3)c2C(N)=O)C1	1	0.78
46	COc1ccc(OC)c(Nc2cc(C(=O)NC3CCCCC3)c3ccccc3n2)c1	1	0.53
47	Cc1onc(-c2ccccc2)c1C(=O)N1CCCc2ccccc21	1.1	1.8
48	CC(CNC(=O)c1cnn(-c2ccccc2)c1-n1cccc1)c1ccccc1 (stereo not drawn)	1	0.6
49	CCCCn1c(C(C)NC(=O)c2ccccc2OC)nc2ccccc21 (stereo not drawn)	1	0.14
50	CCCN(CCC)CCCNC(=O)c1cc(-c2ccc(OCC)cc2)nc2ccccc12	1.1	1.5
51	COc1ccc(C(=O)Nc2c(C(=O)Nc3cccc(F)c3)oc3ccccc23)c(OC)c1	0.97	-0.4
52	Cc1ccc(CCNC(=O)C2CCN(Cc3nc(-c4cccc(Cl)c4)oc3C)CC2)cc1	1.1	0.09
53	CCCCc1nc(OCC(=O)c2ccc(Cl)cc2)c(C#N)c2c1COC(C)(C)C2	1.2	1.8
54	Cc1cccc(N2CCN(CCNC(=O)Nc3ccccc3)CC2)c1C	1.2	2
55	COc1ccc(-c2cn(-c3ccc(C)cc3)c(S(=O)(=O)CC(=O)Nc3ccc(F)cc3)n2)cc1	0.82	-1.7
56	CN1CCN(CCCNC(=O)c2ccc3c(c2)N(Cc2ccccc2)CCS3)CC1	0.98	-0.031
57	Cc1cc(C)c(Cc2c(C)nc3c(C(=O)NCc4cccnc4)cnn3c2C)c(C)c1	0.91	-2.6
58	CCCn1c(CNC(=O)c2ccc(Cl)cc2)nc2ccccc21	1.1	2
59	CCOC(=O)c1cnc2cc(Cl)c(OC)cc2c1NCC1COc2ccccc2O1 (stereo not drawn)	1.1	0.97
60	CCOC(=O)c1c(-c2ccc(F)cc2)csc1NC(C)=O	1	-0.034

2 entries from above, with two lines to a compound.
Second line of a record – CBX7 AlphaScr, CBX7 AlphaScr z-score
[59] CCOC(=O)c1cnc2cc(Cl)c(OC)cc2c1NCC1COc2ccccc2O1 (stereo not drawn)
→ 1.1, 0.97
[60] CCOC(=O)c1c(-c2ccc(F)cc2)csc1NC(C)=O
→ 1, -0.034

(next part)
item	molecule	CBX7 AlphaScr	CBX7 AlphaScr z-score
61	Cc1cc(N2CCCCC2)nc2ccc(NC(=O)Cc3c(F)cccc3Cl)cc12	1	0.75
62	CCCN(CCC)C(=O)CCS(=O)(=O)c1ccc2c(c1)CCN2C(=O)CC	0.98	-0.61
63	Cc1cc(-c2ccccc2)n(-c2cc(N3CCCCC3)ncn2)n1	0.82	-1.9
64	Cc1ccc(CCN2CC(C(=O)NCCc3ccc(Cl)cc3)CC2=O)cc1 (stereo not drawn)	1	0.31
65	O=C(NCc1cccnc1)C1c2ccccc2C(=O)N1C1CCCCCC1 (stereo not drawn)	1	0.052
66	CCOc1ccc(Nc2nc(-c3c(C)nc4cc(C)ccn34)cs2)cc1	0.64&0.65	-8.8&-0.39
67	CC(C)Oc1ccc(C(=O)N2CC(=O)Nc3ccc(Cl)cc3C2c2ccccc2)cc1 (stereo not drawn)	0.65	-3.4
68	Cc1ccc(N2C(=O)Cn3cccc3C2C(=O)NC2CCCC2)cc1 (stereo not drawn)	1.1	1.3
69	COc1ccc(Cl)cc1-n1cnc2cc(C(=O)NCc3ccc(F)cc3)ccc21	0.9	-0.99
70	CC(C)OCCCNC(=O)[C@H](CSCc1ccccc1)N1Cc2ccccc2C1=O	0.95	-1.2
71	Cc1cccc(C(=O)Nc2ccc(Cl)c(-c3nc4ccccc4o3)c2)c1	1.2	1.7
72	COc1ccc(NC(=O)C2CCN(S(=O)(=O)c3cnc[nH]3)CC2)cc1Cl	0.77	-2.7
73	O=S(=O)(Nc1ccc(C(F)(F)F)cc1)c1cccc2cccnc12	1	0.65
74	Cc1ccc(OCC(O)CN2CCN(c3ccccn3)CC2)c(C)c1 (stereo not drawn)	0.96	-0.79
75	Cc1ccc(C(=O)c2oc3ccccc3c2NC(=O)COc2ccccc2Cl)cc1	1.1	0.4
76	O=C(NCc1ccc(F)cc1)C1CCC(=O)N1CCc1ccccc1 (stereo not drawn)	1	-0.013
77	CCOc1ccc(-c2cc(CCCC(=O)NCc3ccc(F)cc3)no2)cc1	1.1	2.4
78	CC1CCN(S(=O)(=O)c2cccc(C(=O)Nc3ccccc3C(=O)N3CCCCC3)c2)CC1	1.1	1.1
79	CCCCc1ccc(NC(=O)c2cnc3ccccn3c2=O)cc1	1	0.37
80	CCCCNC(=O)c1cc(-c2cccc(OC)c2)on1	1.2	1.1
81	COc1ccccc1CN1CC(C(=O)NCc2cccnc2)CC1=O (stereo not drawn)	0.98	-0.6
82	Cc1nc2nc(SCC(=O)NCCc3ccccc3)nn2c(C)c1Cc1ccccc1	0.86	-0.58
83	O=C(c1cnc(N2CCN(c3ncccn3)CC2)c2ccccc12)N1CCC(Cc2ccccc2)CC1	1	0.16
84	CC(=O)NC12CC3CC(C1)CC(n1cnc(C)n1)(C3)C2	1	-0.23
85	CCOc1ccc(NC(=O)CSc2nnc(Cc3cc(=O)[nH]c(=O)[nH]3)n2-c2cccc(C)c2)cc1	1	0.87
86	CCOC(=O)c1ccc(NC(=O)CCc2c(C)nc3c(-c4ccccc4)c(C)nn3c2C)cc1	1.2	1.7
87	COc1ccccc1C(=O)Nc1ccc(-c2cn3cccc(C)c3n2)cc1	1	0.62
88	CN(C)C(=O)CSc1nnc(-c2cccc(F)c2)n1-c1ccccc1	1.1	3.7
89	Cc1ccc(-n2ncnc2-c2cccs2)cc1Cl	1	0.13
90	COc1ccc(NC(=O)c2c(NCc3cccs3)sc3c2CCCCC3)c(OC)c1	0.51	-6.8
91	O=C(CCc1nc2sc3c(c2c(=O)[nH]1)CCCC3)NC1CCCC1	1	0.72
92	Cc1ccc(CNC(=O)c2ccc3c(c2)N(Cc2cc(C)ccc2C)C(=O)c2ccccc2S3)cc1	0.96	-1.4
93	COc1ccc(-c2nc(C(=O)NCc3ccccc3Cl)c(C)o2)cc1OC	0.95	-0.63
94	Cc1cccc(OCCn2c(=O)n(C)c3ccccc32)c1	0.98	-0.51
95	Cc1ccc(-c2cc(C(=O)Nc3cc(C(F)(F)F)ccc3Cl)c3ccccc3n2)cc1C	0.96	-0.15
96	COc1ccc(C2CC(=O)N(CC(=O)Nc3ccc(Br)cc3)c3ccccc3S2)cc1 (stereo not drawn)	0.97	-0.44
97	O=C(Nc1ccc(F)c(C(F)(F)F)c1)c1cnc2sccn2c1=O	0.88	-1.7
98	O=C(Nc1ccccc1C(=O)N1CCCC1)c1cccc(S(=O)(=O)N2CCOCC2)c1	1.2	3.5
99	O=C(Cn1c(SCc2ccccc2)nc2ccccc21)Nc1ccccc1F	1	0.18
100	Cc1ccccc1-c1nc(CSCC(=O)N2CCC(C(N)=O)CC2)c(C)o1	0.95	-0.51
101	Cc1cccc(-n2c(Cc3cc(=O)[nH]c(=O)[nH]3)nnc2SCC(=O)N2CCCCCC2)c1	1.1	0.26
102	CCn1cc(C(=O)NCc2ccco2)c(=O)c2ccc(C)nc21	1	0.28
103	Cc1ccc(C)c(NC(=O)C2CCN(S(=O)(=O)c3ccc4c(c3)CCC(=O)N4)CC2)c1	0.93	-1.8
104	CCOc1ccccc1NC(=O)CSc1ncnc2ccccc12	1	1.1
105	CCN1CCN(Cc2ccc(NC(=O)Nc3ccc(Br)cc3)cc2)CC1	1.4	7
106	COc1ccc(C)cc1Nc1nc2ccc(C)cc2nc1-n1nc(C)cc1C	1.8	19
107	CCOc1cccc(C(=O)Nc2ccc3nn(-c4cccc(Cl)c4)nc3c2)c1	1	0.44
108	CCCNC(=O)C1CCCN(S(=O)(=O)c2c(C)noc2/C=C/c2cccs2)C1 (stereo not drawn)	1.1	1.8
109	COc1ccc(NC(=O)c2cn(-c3ccc(Cl)cc3)c(=O)c3ccccc23)c(OC)c1	0.92	-2.2

Single records, from the list above. Order of screens: CBX7 AlphaScr, CBX7 AlphaScr z-score
`CCOc1cccc(C(=O)Nc2ccc3nn(-c4cccc(Cl)c4)nc3c2)c1` is listed as 1, 0.44
`O=C(Nc1ccccc1C(=O)N1CCCC1)c1cccc(S(=O)(=O)N2CCOCC2)c1` is listed as 1.2, 3.5
`Cc1cccc(OCCn2c(=O)n(C)c3ccccc32)c1` is listed as 0.98, -0.51
`CCN1CCN(Cc2ccc(NC(=O)Nc3ccc(Br)cc3)cc2)CC1` is listed as 1.4, 7
`O=C(Nc1ccc(F)c(C(F)(F)F)c1)c1cnc2sccn2c1=O` is listed as 0.88, -1.7

Compound activity as filed in PubChem.

Not all compounds are listed (hit frequency here may not be typical).
